High-throughput results deposited in PubChem by National Center for Advancing Translational Sciences (NCATS).
StopGo reporter: lowers the luciferase signal of an FMDV 2A StopGo reporter; human cells with a luciferase reporter of 2A StopGo recoding; control for the full effect not named in the record; Potency, µM (highest dose often 57.9 µM), without a hit: top-dose signal change, negative = less light; 410,000 tested, 1.2% active; AID 1159524; active = well fitted falling curve with a large enough effect; inconclusive = small, poorly fitted or top-dose-only effect; inactive = no such curve, though single readings can be large or run the other way; tested in HEK293T cells; further: on the % scale 0 is the no-effect control and ±100 the full control effect; nearly all actives have a fitted effect of over 45% in size; luciferase light after 4 h
Cruzain inh Det: cruzain (T. cruzi) inhibition with detergent; purified cruzain, Z-FR-AMC fluorescence, 0.01% Triton; AID 1478; 200,000 tested, 0.43% active; Potency, µM, for inactives: max response, negative = inhibition, hits mostly inhibitors; P25779; active means well fitted curve in the direction sought with a large enough effect; inconclusive means small, poorly fitted or top-dose-only effect, or another doubt; inactive means no such curve, though single readings can be large; an effect the other way counts as inactive or inconclusive;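 further: plate controls were neutral wells for no effect and buffer without enzyme for full effect; nearly all actives have a fitted effect of over 40% in size; top concentration of the series not given in the record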
Target sequence (P25779 123-467 limits assumed): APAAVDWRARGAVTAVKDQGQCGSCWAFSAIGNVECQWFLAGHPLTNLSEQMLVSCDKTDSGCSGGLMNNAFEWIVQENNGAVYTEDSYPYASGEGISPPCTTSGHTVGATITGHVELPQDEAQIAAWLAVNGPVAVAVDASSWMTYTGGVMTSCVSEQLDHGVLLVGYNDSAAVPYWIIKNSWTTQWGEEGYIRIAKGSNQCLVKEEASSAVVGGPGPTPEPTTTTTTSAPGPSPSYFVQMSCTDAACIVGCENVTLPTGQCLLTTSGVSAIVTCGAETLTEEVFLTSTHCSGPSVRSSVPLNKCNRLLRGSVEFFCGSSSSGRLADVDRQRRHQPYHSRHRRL
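Purified cruzain (1.5 nM final) was preincubated with compounds for 15 min at room temperature in 100 mM sodium acetate pH 5.5, 5 mM DTT, 0.01% Triton X-100. Reaction started with 2 uM Z-FR-AMC; AMC fluorescence change over 60 s gave activity.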
RE007 growth inh: less growth of the S. pombe RE007 Vpr strain; 360,000 tested, 0.21% active; Potency, µM (series often up to 92.2 µM), inactives show at the highest dose activity change, negative = less growth; S. pombe RE007 Vpr strain, BacTiter-Glo ATP luminescence, 24 h; control for the full effect not named in the record; active = well fitted falling curve with a large enough effect; inconclusive = small, poorly fitted or top-dose-only effect; inactive = no such curve, though single readings can be large or run the other way;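 further: on the % scale 0 is the no-effect control and ±100 the full control effect; nearly all actives have a fitted effect of over 50% in size; the assay follows cell death caused by Vpr and the record does not say whether a fall means rescue or toxicity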
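Fission yeast strain RE007, carrying one chromosomally integrated HIV-1 vpr copy, was seeded at OD 0.01 in PMG+AL medium with 23 nL pinned compound. After 24 h at 30 °C and 99% humidity, viability was read by BacTiter-Glo luminescence.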
Cruzain noTriton: inhibitors of Trypanosoma cruzi cruzain without detergent | P25779 | purified cruzain, Z-FR-AMC fluorescence, no detergent | Potency, µM, without a hit: max response, negative = inhibition, hits mostly inhibitors | 200,000 tested, 2.3% active; active means well fitted curve in the direction sought with a large enough effect; inconclusive means small, poorly fitted or top-dose-only effect, or another doubt; inactive means no such curve, though single readings can be large; an effect the other way counts as inactive or inconclusive;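 further: plate controls were enzyme without inhibitor for no effect and buffer without enzyme for full effect; nearly all actives have a fitted effect of over 40% in size; top concentration of the series not given in the record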
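Purified cruzain at 1.5 nM, pre-incubated 15 min with compound at room temperature in 100 mM sodium acetate pH 5.5, 5 mM DTT, 0.00005% Triton X-100. Reaction started with 2 uM Z-FR-AMC; AMC fluorescence increase over 60 s gives rate.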
Lassa entry inh: inhibitors of Lassa virus binding or cell entry; Lassa virus pseudotype entry inhibition, cell reporter; control for the full effect not named in the record; Potency, µM (doses to about 37.9 µM), without a hit: top-dose activity change, negative = inhibition, actives largely listed as inhibitors; AID 540256; 300,000 tested, 1.2% active; active means well fitted inhibition curve with a large enough effect; inconclusive means small, poorly fitted or top-dose-only effect, or effect the other way; inactive means flat fitted curve, though single readings scatter; tested in HEK293 cells; further: on the % scale 0 is the no-effect control and ±100 the full control effect; nearly all actives have a fitted effect of over 50% in size; luciferase read-out
NS1 function inh: blocks influenza NS1 protein function | Potency, µM (doses to about 46.1 µM), for the others: at the top dose activity, positive = more growth | 270,000 tested, 0.4% active | S. cerevisiae slowed by influenza A NS1, growth recovery by OD600; further: actives are rising curves; nearly all actives have a fitted effect of over 50% in size
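OD600 was taken as the measure of yeast growth restored by compound in an NS1-expressing S. cerevisiae strain. Cells had been washed out of glucose medium and diluted 1:100 into galactose -URA medium, pH 6.0.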
SARS PLpro yeast: inhibitors of SARS-CoV papain-like protease in yeast; S. cerevisiae expressing SARS-CoV PLpro, growth rescue; control for the full effect not named in the record; Potency, µM (highest dose often 32.9 µM), for inactives: at the top dose activity, positive = growth rescue; 330,000 tested, 0.19% active; AID 485353; further: 0% is about no effect; nearly all actives have a fitted effect of over 55% in size; growth read by luminescence after 48 h
MARV entry inh: inhibitors of Marburg virus binding or cell entry; Marburg virus pseudotyped entry inhibition, cell reporter; control for the full effect not named in the record; about a third of the inactives were read at about 46 µM; Potency, µM (series often up to 37.8 µM), for the others: at the highest dose activity change, negative = inhibition, most hits filed as inhibitors; 300,000 tested, 1.8% active; AID 540276; active = well fitted inhibition curve with a large enough effect; inconclusive = small, poorly fitted or top-dose-only effect, or effect the other way; inactive = flat fitted curve, though single readings scatter; tested in HEK293 cells; about a fifth of its hits are not listed in these tables; further: on the % scale 0 is the no-effect control and ±100 the full control effect; luciferase read-out
Active calls of the source: *; ? = inconclusive; / = no result given; & = joins results of further samples; [ ] = dose if it differs, or a comment. Unless noted, the call rests on the fitted dose curve; in most records, active means well fitted rising curve with a large enough effect; inconclusive means small, poorly fitted or top-dose-only effect; inactive means no such curve, though single readings can be large or run the other way. Potency means the concentration at half of the fitted maximal effect. No enrichment for hits. About 4.6% of those tested had a hit in this group.

SMILES	StopGo reporter	Cruzain inh Det	RE007 growth inh	Cruzain noTriton	Lassa entry inh	NS1 function inh	SARS PLpro yeast	MARV entry inh
COc1cc(/C=C(\C#N)C(=O)NCc2ccccc2)ccc1OCc1ccc(C(=O)O)cc1	-12%	/	-2%	/	/	6%	1%	/
CC(C)(C)c1cc(C(C)(C)C)n(-c2ccccc2)n1	-12%	-4.7%	1%	26%	15%	4%	5%	?
O=C(NCc1ccc(F)cc1)Nc1ccc(Cl)cc1	38%[activator]	/	-9%	/	?	-3%	0%	3%
CN(CC(=O)N1CCN(Cc2ccccc2)CC1)C(=O)Cc1ccc(Cl)c(Cl)c1	1%	/	-7%	/	-4%[46.1 µM]	/	-6%	-13%[46.1 µM]
COC(=O)c1ccccc1SCc1csc(C)n1	-2%	/	-11%	/	4%[46.1 µM]	2%	0%	1%[46.1 µM]
O=C(CSc1ccc(C(F)(F)F)cc1[N+](=O)[O-])Nc1ccc2ccccc2c1	-24%	-3.7%	-2%	13µM*	-7%	-6%	14%	?
CCOC(=O)C1=C(C)C(c2ccc(OC)cc2OC)NC(=O)N1 (stereo not drawn)	-5%	-1.4%	8%	-3%	12%	6%	17%	-1%
COc1ccc(CNC(=O)CSc2nnc(C)n2-c2ccc(F)cc2)cc1	-8%	0.3%	3%	0%	4%	-15%	-3%	-3%[46.1 µM]
COc1ccccc1[C@H]1C(c2ccccc2)=NN(c2ccccc2)[C@@H]1CO	-30%	-26%	5%	?	/	/	/	/
COc1cc(/C=N/NC(N)=S)ccc1OC(=O)c1ccc(C)cc1	-1%	4.5µM*	-6%	2.5µM*	1%	-7%	17%	-2%
O=C(Nc1sc2c(c1C(=O)O)CCCCC2)c1ccco1	-33%	-3.0%	?	-13%	?	-165%	-20%	?
Oc1ccc(/C=N/N2CCN(C3c4ccccc4-c4ccccc43)CC2)cc1O	?	/	-4%	/	-28%	?	1%	4%[46.1 µM]
COc1cccc(-c2ccc(SCC(=O)N3CCOCC3)nn2)c1	31%[activator]	/	10%	/	/	/	-2%	10%[46.1 µM]
CC(C)NC(=O)C1CCN(Cc2cccc(Oc3ccccc3)c2)CC1	-29%	/	-13%	/	/	6%	5%	/
O=C(NCc1cccc(F)c1)C1CCN(S(=O)(=O)Cc2ccccc2)CC1	16%	-1.2%	3%	-10%	3%	3%	0%	11%
O=C(C1CCCN1S(=O)(=O)c1cccc2nsnc12)N1CCCCCC1 (stereo not drawn)	-21%	/	23%	/	/	5%	1%	/
Cc1cc(C)nc(/N=C(\N)Nc2ccc(OCCC(C)C)cc2)n1	8.9µM*	/	-2%	/	-19%	-2%	1%	?
CC12CCC(C(=O)N3CCCCC3)(CC1=O)C2(C)C (stereo not drawn)	15%	4.5%	12%	3%	14%	13%	-3%	?
Cc1cccc(N(C)C(=O)c2cc3c(=O)oc4ccc(C)cc4c3s2)c1	3%	3.2%	/	-6%	?	/	/	0%[46.1 µM]
Cc1ccc(CN2C3=NC(=O)CN3c3ccccc32)cc1	1%	3.1%	-1%	1%	-17%	-11%	/	16%[46.1 µM]
Cc1ccc2nc(N3CCN(C(=O)c4ccccc4F)CC3)c(C#N)cc2c1	-14%	/	-13%	/	-28%[46.1 µM]	/	/	12%[46.1 µM]
CCOC(=O)C1C(c2ccc(O)c(OC)c2)NC(=O)NC1(O)C(F)(F)F (stereo not drawn)	-13%	/	3%	/	/	14%	2%	/
O=C1C(=O)N(Cc2cccs2)c2ccccc21	11%	/	7%	/	-24%	-83%	-28%	-20%
O=C(NCc1nc2ccccc2[nH]1)c1cc2ccccc2oc1=O	-25%	14µM*	-3%	7.9µM*	3%	-13%	4%	-7%
Cc1cc(C)nc(SCc2nnc(SCC(N)=O)o2)n1	-15%	/	12%	/	/	1%	0%	/
C=CCn1c(SCCOc2ccc(OC)cc2)nnc1C(C)NC(=O)Cc1ccc(OC)cc1 (stereo not drawn)	-12%	1.4%	7%	?	?	-1%	19%	0%
O=C(Nc1ccccc1)Nc1cccc2nsnc12	29%	/	-27%	/	?	-37%	-2%	?
O=C(Nc1ccc2c(c1)OCO2)C(c1ccccc1)N1CCC2(CC1)OCCO2 (stereo not drawn)	26%	5.9%	3%	4%	-7%	-10%	4%	7%
CCOC(=O)c1c(NC(=S)Nc2ccc(OC)cc2)sc2c1CCC2	-19%	-10%	-13%	-23%	5%	24%	13%	1%
CC(C)(C)Nc1nc(Cl)nc(N(C#N)CN2C(=O)c3ccccc3S2(=O)=O)n1	0%	/	-8%	/	9%	2%	6%	?
CCN(C(=O)CCS(=O)(=O)c1ccc2c(c1)CCN2C(C)=O)c1cccc(C(F)(F)F)c1	-13%	-3.2%	/	12%	7%[46.1 µM]	/	/	-5%[46.1 µM]
Cc1cc(C)cc(N(CC(=O)O)S(=O)(=O)c2c(C)noc2C)c1	/	-0.5%	-4%	12%	0%	1%	1%	8%
CC(=O)Nc1ccc(S(=O)(=O)n2cnc(C)c2)cc1	0%	4.1%	7%	-1%	3%	3%	2%	19%
CCc1ccc2c(CN3CC=C(c4ccccc4)CC3)cc(=O)oc2c1	32%[activator]	-6.6%	-6%	?	11%	5%	8%	-8%
CN(C)C(=O)CCSc1nnc(-c2ccco2)o1	36%[activator]	/	-9%	/	26%	/	-1%	2%
O=C(Nc1cccc(Cl)c1)OCCOCCOC(=O)Nc1cccc(Cl)c1	-5%	/	23%	/	-12%[46.1 µM]	/	/	?
COC(=O)c1ccc(C)c(NC(=O)CN2C(=O)c3ccccc3S2(=O)=O)c1	-12%	-0.4%	-7%	-6%	-1%	16%	-3%	-6%&-7%
Cc1cccc(C)c1NC(=O)CSc1nnc(-c2cnccn2)n1C	-14%	/	4%	/	12%[46.1 µM]	-2%	-1%	12%[46.1 µM]
Cc1cccc(N2CC(c3nc4ccccc4n3C)CC2=O)c1C (stereo not drawn)	0%	-0.2%	1%	-1%	2%	-3%	-18%	2%
CCOC(=O)CSc1nc2c(c(=O)n(Cc3ccccc3Cl)c(=O)n2C)n1C	-2%	-2.6%	19%	5%	10%	-5%	4%	-2%[46.1 µM]
CCOc1ccc(N2CC(NC(=O)CCc3ccccc3)CC2=O)cc1 (stereo not drawn)	-13%	0.1%	/	-1%	0%[46.1 µM]	/	/	/
CCN1CCCC1CNC(=O)c1ccc2c(c1)NC(=O)/C(=C\c1ccc(C)cc1)S2 (stereo not drawn)	-3%	/	-1%	/	/	-2%	-10%	/
Cc1cccc(N(C(=O)c2ccc(CN3CCOCC3)o2)C(C(=O)NC(C)(C)C)c2ccc(F)cc2)c1 (stereo not drawn)	-18%	-2.0%	1%	?	?	-1%	-2%	?
Nc1cc(OCC(F)(F)F)cc([N+](=O)[O-])c1	-25%	-6.1%	9%	?	?	0%	-12%	6%
CCN(Cc1nc2cc(Cl)ccc2c(=O)[nH]1)C(=O)CN1C(=O)NC2(CCCCC2C)C1=O (stereo not drawn)	-18%	/	0%	/	0%	/	6%	0%
Cc1ccc2nc(C3CCN(C(=O)NCc4ccccc4)CC3)[nH]c2c1	2%	-0.1%	-11%	-3%	-17%[14.3 µM]	-4%	0%	11%
COC(=O)c1c(C(C)=O)c(C)n(C)c1C	-5%	/	-1%	/	16%[46.1 µM]	3%	0%	?
COc1ccc(NC(=O)Cn2c(=O)n(CC3CCCO3)c(=O)c3cc(OC)c(OC)cc32)cc1OC (stereo not drawn)	-10%	/	2%	/	/	-20%	0%	/
Cn1cccc1C1Nc2ccccc2NC2=C1C(=O)CC(C)(C)C2 (stereo not drawn)	4%	-2.1%	-23%	-20%	?	-2%	-8%	0%
COCC(=O)n1nc(-c2ccccc2)nc1NCc1ccc(F)cc1	23%	-0.5%	15%	3%	5%	-6%	4%	12%
Cc1ccc(-n2nc(C(=O)N3CCN(c4cc(Cl)ccc4C)CC3)c3c4ccccc4n(C)c3c2=O)cc1	-28%	-0.1%	/	3%	5%[46.1 µM]	/	/	-1%[46.1 µM]
Cn1cc(C(=O)C(F)(F)F)c2ccccc21	-10%	-4.1%	-24%	-3%	2%	10%	-7%	13%
CC(C)OC(=O)Nc1ccc2c(c1)N(C(=O)N1CCN(C)CC1)c1ccccc1CC2	24%	/	-25%	/	?	-3%	-3%	?
COc1cc(OC)cc(C(=O)N2CCC(c3ccncc3)CC2)c1	46%[activator]	2.4%	/	9%	-26%[46.1 µM]	/	/	/
CCO[C@H]1OC(C(=O)N2CCN(Cc3ccccc3)CC2)=C[C@@H](c2ccc(C(F)(F)F)cc2)[C@@H]1CCCO	-17%	/	-8%	/	/	1%	1%	/
Nn1c(Cc2ccccc2)nc2sc3c(c2c1=O)CCC3	-22%	/	-4%	/	/	0%	-2%	/
CCOC(=O)c1cc(-c2ccccc2)n(-c2cccc(C(=O)Nc3ccc(F)c(F)c3)c2)c1C	?	0.7%	/	20µM*	-15%[46.1 µM]	/	/	/
Cc1c(SCCO)c(=O)[nH]c2cc3c(cc12)OCO3	7%	-3.4%	19%	0%	-4%	7%	1%	10%
CCCCn1nc(C(=O)Nc2ccc3c(c2)OCO3)c2ccccc2c1=O	-7%	/	-14%	/	?	/	-8%	?
Cc1ccc(S(=O)(=O)N(CC(=O)NCc2ccccc2)C(=O)N2CCN(C)CC2)cc1	-7%	/	0%	/	7%	/	14%	25%
CCCCCC(N)=O	0%	-6.8%	-12%	-3%	/	/	8%	/
CC(=O)/C(=N/Nc1cccc(Cl)c1)Sc1nnc(C(O)c2ccccc2)n1-c1ccccc1 (stereo not drawn)	0%	-6.9%	9%	?	?	13%	9%	-13%
O=C(O)c1cccc(Nc2nc(-c3cccnc3)nc3ccccc23)c1	-13%	-14%	1%	-13%	7%	0%	9%	-4%
